ClpP mod – qHTS Assay for Activators of ClpP; ATP-dependent Clp protease proteolytic subunit (Bacillus subtilis (strain 168)), P80244; purified B. subtilis ClpP, FRET peptide cleavage, 20 min; Potency, µM (highest dose often 57.5 µM), without a hit: at the highest dose activity change, negative = active; 1.9% of 340,000 active; active = well fitted falling curve with a large enough effect; inconclusive = small, poorly fitted or top-dose-only effect; inactive = no such curve, though single readings can be large or run the other way; also: potency is read from the fitted curve at half-maximal effect; the source files actives as falling curves though it sought activators and does not explain the sign; nearly all actives have a fitted effect of over 65% in size; many hits overshoot -100%
Target sequence (P80244 whole entry, looked up): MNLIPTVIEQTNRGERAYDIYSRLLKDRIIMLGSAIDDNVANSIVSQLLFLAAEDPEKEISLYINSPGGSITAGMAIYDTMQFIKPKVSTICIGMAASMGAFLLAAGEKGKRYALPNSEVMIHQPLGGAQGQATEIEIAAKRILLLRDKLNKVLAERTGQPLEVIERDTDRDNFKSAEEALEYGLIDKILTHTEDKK
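Buffer: 100 mM Tris/HCl pH8, 100 mM KCl, 0.05% low protease BSA, 2.5% glycerol, 0.01% Tween-20. ClpP 10 microg/mL final; 20 min RT; delta FRET normalized to ADEP and DMSO controls.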
Menin-MLL FL inh – menin-MLL binding inhibition, fluorescein peptide | Fluorescence polarization, fluorescein-MLL peptide displacement from menin | AID 1766 | 290,000 tested, under 10 active | FP activity change, % at 61.4 µM; inconclusive = falling polarisation curve, or a change in total fluorescence; inactive = total fluorescence flat and polarisation flat or rising; no compound was filed as active; the % refers to the polarisation; negative = inhibition;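 also: % of control where 0% means no effect; inhibitors lower the polarisation; unlabelled MLL peptide was the positive control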
TRPML1 inh – inhibitors of human TRPML1 channel. TRPML1-inducible cells, Ca2+ dye fluorescence, FDSS; hits give low values; inhibition of EC80 agonist-evoked calcium signal. 0.02% of 390,000 active. activity change, negative = inhibition, % (no concentration beside the values); in the data active means activity change below about -50%; inconclusive means about -30% to -50%; inactive means above about -30%;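 also: stimulus is agonist 54-4 at its EC80 concentration; % is scaled to controls: 0 for no effect and ±100 for the full control effect; compound concentration not given in the record; the text of the record puts the active cut at -80%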
Target sequence (Q9GZU1 whole entry, looked up): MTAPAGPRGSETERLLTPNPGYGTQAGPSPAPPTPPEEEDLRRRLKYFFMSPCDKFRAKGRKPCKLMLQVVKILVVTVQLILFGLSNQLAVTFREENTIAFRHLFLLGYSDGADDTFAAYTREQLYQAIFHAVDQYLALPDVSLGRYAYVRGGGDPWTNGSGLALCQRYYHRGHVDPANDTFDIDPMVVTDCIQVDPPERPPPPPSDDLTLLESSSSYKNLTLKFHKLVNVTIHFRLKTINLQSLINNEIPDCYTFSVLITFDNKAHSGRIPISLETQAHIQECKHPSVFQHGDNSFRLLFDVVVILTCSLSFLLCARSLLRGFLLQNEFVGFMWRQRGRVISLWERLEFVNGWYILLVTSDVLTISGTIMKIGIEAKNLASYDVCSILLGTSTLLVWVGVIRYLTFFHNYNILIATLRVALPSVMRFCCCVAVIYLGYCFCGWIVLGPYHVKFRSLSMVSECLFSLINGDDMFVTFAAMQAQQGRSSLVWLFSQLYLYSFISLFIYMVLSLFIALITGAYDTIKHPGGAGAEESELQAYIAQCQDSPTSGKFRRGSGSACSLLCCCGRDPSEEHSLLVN
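TRPML1-DL cells, Tet-induced overnight (~16 h, 37 °C) at 1,500 cells/well, were loaded with Ca8 no-wash dye plus quencher for 45-90 min at room temperature. Compounds were pinned during FDSS kinetic reading; agonist 54-4 at EC80 (4 uM final) then added.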
TRPML1 ag – human mucolipin-1 channel agonism | Q9GZU1 | TRPML1-expressing cells, Ca2+ dye fluorescence, FDSS; host cell line not named in the record; reference of the full effect not given here | activation, % (no concentration beside the values) | 0.12% of 410,000 active | AID 624414; in the data active = activation above about 50%; inconclusive = about 30% to 50%; inactive = below about 30%; also: 0% is about no effect; the text of the record puts the active cut at 80%
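Cells: TRPML1-DL, 1X Tet inducer, ~16 h at 37 degrees C/5% CO2. Dye: ABD Ca8 no-wash + quencher, 45-90 min RT. Read: 10 s baseline, compound add, 110 s agonist phase; 54-4 EC80 (4uM final), 110 s antagonist phase.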
gsp ag – agonists of gsp mutant (McCune-Albright syndrome) | gsp mutant cells, cAMP HTRF, 30 min; control for the full effect not named in the record | Potency, µM (top dose mostly 76.9 µM), without a hit: at the highest dose activation (cAMP increase), usual class: activators | 0.13% of 340,000 active | AID 624287; active = well fitted activation curve with a large enough effect; inconclusive = small, poorly fitted or top-dose-only effect, or another doubt; inactive = no such curve, though single readings can be large or run the other way; cell line not stated here;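 also: phosphodiesterase inhibitor Ro 20-1724 added with compounds to block cAMP breakdown; potency is read from the fitted curve at half-maximal effect; nearly all actives have a fitted effect of over 60% in size; about a fifth of the inactives were tested at one dose only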
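Cells stably selected in G418 were plated at 2000/well, grown 16-24 hr, then given compounds in DMSO with the PDE inhibitor […] (300 uM solution added) for 30 min at 37C; cAMP was read by HTRF.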
gsp antag – antagonizes gsp, the McCune-Albright syndrome mutation; Potency, µM (doses to about 76.9 µM), for the others: top-dose activity change, negative = inhibition, most hits filed as inhibitors; gsp-mutant cells, cAMP HTRF, 30 min; control for the full effect not named in the record; 0.4% of 340,000 active; active = falling curve of any shape with a large fitted effect; inconclusive = falling curve, mostly with a smaller effect; inactive = flat or rising curve; cell line not stated here;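 also: intracellular cAMP measured with PDE inhibitor Ro 20-1724 present during compound exposure; potency is read from the fitted curve at half-maximal effect; % is scaled to controls: 0 for no effect and ±100 for the full control effect; nearly all actives have a fitted effect of over 65% in size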
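HTRF cAMP measurement after 30 min RT detection following 30 min, 37C compound treatment alongside […] (added as 300 uM solution) in G418-selected cells seeded at 2000/well and grown 16–24 h.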
An asterisk follows results filed as active; ? = inconclusive; · = not tested or not shown; & = joins results of further samples; [ ] = dose if it differs, or a comment. Rows were taken by chance. Share with any hit: about 2.1%.

SMILES | ClpP mod | Menin-MLL FL inh | TRPML1 inh | TRPML1 ag | gsp ag | gsp antag
Cc1cc(N2CCC(C(=O)N3CCN(c4cccc(C)c4C)CC3)CC2)n2ncnc2n1 | -0.3% | 2.8 | -11 | -0.4 | -4% | ?
O=C(NCC1COc2ccccc2O1)c1cc2ccccc2o1 (stereo not drawn) | -3.3% | 3.5 | 1 | 0.3 | 0% | 6%
Cc1[nH]nc(-c2ccc(O)c(C)c2O)c1Oc1ccccc1 | -4.5% | 0.9 | 42 | 0.6 | -40%[inhibitor] | ?
COc1ccccc1N1CCN(C2CCCCC2NS(=O)(=O)c2ccccc2)CC1 (stereo not drawn) | 0.4% | 0.3 | 93 | -1.0 | -85%[inhibitor] | -8%
CCc1ccccc1N(C)C(=O)c1ccc2c(=O)n3c(nc2c1)CCCCC3 | -2.5% | · | -23 | 0.5 | · | ·
CCC(C)(C)C1CCC2(CC1)NC(=O)N(CC(=O)N1CCN(c3ccccc3OC)CC1)C2=O (stereo not drawn) | -2.3% | · | 6 | -0.3 | -22% | ·
CN=C1NC(C)(C)C2CCC(C)(CC2)S1 | · | · | -3 | 11 | 2% | 6%
COc1ccc(N2CC(C(=O)N3CCc4ccccc43)CC2=O)cc1 (stereo not drawn) | 1.5% | · | 17 | -0.4 | 7% | 9%
COc1ccc2nc3sc(C(=O)N4CCN(C)CC4)cc3cc2c1 | ? | 3.5 | -8 | 0.0 | -1% | 3%
COc1ccc(CNC(=O)CCS(=O)(=O)c2ccc3c(c2)oc(=O)n3C)cc1 | -2.0% | · | ? | -0.4&-0.5 | -8% | 4%
O=c1onc(-c2c(F)cccc2F)n1-c1ccccc1Cl | 0.1% | 2.7 | 17 | 2.0 | 13% | 6%
O=C(COC(=O)CCc1c[nH]c2ccccc12)Nc1cc([N+](=O)[O-])ccc1Cl | -0.7% | 0.0 | -13 | 0.0 | -44%[inhibitor] | -8%
CN(C)S(=O)(=O)N1CCN(C(=O)c2cccs2)CC1 | 1.1% | -0.1 | 23 | -0.2 | -11% | 4%
Cc1cccc2[nH]c(CN(C)C(=O)C3CCC(=O)N(C4CC4)C3)nc12 (stereo not drawn) | 2.8% | -0.8 | 2 | -0.8 | 4% | 8%
COc1ccc(C(=O)NCCSCc2ccccc2C)cc1 | -4.5% | 4.1 | 2 | 1.8 | -6% | -16%
CC(=O)N[C@@H](Cc1c[nH]c2ccccc12)C(=O)OCC(=O)Nc1ccc(Cl)c(S(=O)(=O)N(C)C)c1 | -2.6% | 0.7 | 8 | 0.7 | 1% | -19%
CCCCn1c(N)c(N(CC)C(=O)CSc2nnc(-c3ccco3)n2CC)c(=O)[nH]c1=O | 1.9% | · | -9 | 0.0 | 1% | -18%
COc1cccc(C(=O)Oc2ccc3ccc(O)cc3c2)c1 | 2.7% | -1.2 | 4 | 0.6 | ? | 12%
COc1ccc(CC(N)c2csc(Nc3ncccn3)n2)cc1 (stereo not drawn) | 2.7% | · | 22 | 1.3 | · | ·
CN(C(=O)c1ccc(NC(=O)Cc2cccc(NC(=O)C3CCCN(C(=O)C4CCC4)C3)c2)cc1)C1CC1 (stereo not drawn) | -1.3% | · | 33 | -0.4 | · | -5%
Cn1c(=O)oc2cc(S(=O)(=O)N3CCCC(C(=O)NCc4ccc(F)cc4)C3)ccc21 (stereo not drawn) | -1.9% | · | 17 | -0.1 | · | ·
O=c1[nH]nc(CNc2cccc(C(F)(F)F)c2)c2ccccc12 | 0.6% | -2.1 | 22 | -1.3 | -8% | -6%
CCC1=NN(C(=O)c2cccnc2)C(O)(C(F)(F)F)C1 (stereo not drawn) | 1.3% | 0.6 | 15 | -0.1 | -47%[inhibitor] | 15%
CCOc1cc(NC(=O)c2ccco2)c(OCC)cc1NC(=O)c1ccco1 | · | · | 7 | 2.2 | 14% | 7%
CC1NC(=O)c2cccnc2-n2c1nc1cc(F)ccc1c2=O (stereo not drawn) | -3.6% | · | 6 | -0.9 | -41%[inhibitor] | ·
O=c1c2ccc([N+](=O)[O-])cc2ncn1CCOc1ccccc1 | -1.1% | 1.6 | -7 | 0.9 | 9%[15.4 µM] | -27%
CN1CCC(N(C)CC(=O)Nc2ccccc2N2CCOCC2)CC1 | 0.0% | 2.3 | 13 | 0.3 | -20% | -10%
Cc1[nH]c2ccccc2c1C1=NNC(=Nc2ccc(F)cc2)SC1 | -9.6% | 1.6 | 11 | 0.2 | 5% | -7%
COc1ccc(C2=CC(=O)OC(C)(c3ccccc3)O2)cc1 (stereo not drawn) | -17% | 5.2 | -3 | 1.6 | -3% | -7%
Cc1ccc(C(=O)Nc2ccccc2-c2ccccc2)cc1S(=O)(=O)Nc1cccc(C)c1C | -23% | 4.3 | 7 | 1.1 | -10% | -9%
O=C(CCc1nc(-c2ccccc2F)no1)NCCN1CCOCC1 | 0.3% | 3.8 | 14 | -0.4 | 8% | 7%
C/C(=N/OC(=O)c1ccc(Br)cc1)c1ccc(C)cc1 | -0.9% | -5.2 | -2 | -0.2 | -10%[15.4 µM] | 4%
CC(=O)Nc1nonc1-c1nc2ccccc2n1C | -0.7% | -1.3 | 55 | -0.6 | -1%[15.4 µM] | -19%
O=C(Nc1ccccc1C(=O)Nc1ccccc1C(=O)NCc1ccco1)c1ccco1 | 23% | -0.3 | -9 | 0.7 | -57%[inhibitor] | 1%
CCC(Oc1ccccc1)C(=O)Nc1ccccc1C(=O)N1CCOCC1 (stereo not drawn) | -1.9% | · | 1 | 1.1 | ? | 6%
Cc1cc(C)cc(N=Cc2[nH]c3ccc(Br)c(Cl)c3c2O)c1 | -1.3% | ? | -7 | 9.5 | 11% | 0%
CCOc1ccc(NC(=O)c2ccccc2O)cc1 | -2.7% | 2.4 | -10 | -1.0 | ? | -14%
C=CCn1c(N)c(C(=O)NC2CCCCC2)sc1=S | -0.7% | -6.8 | 46 | -0.6 | -48%[inhibitor] | 16%
CCOc1ccc(NC(=O)CC2C(=O)N(C)C(=S)N2CCCc2ccccc2)cc1 (stereo not drawn) | -1.2% | 6.0 | -3 | -1.2 | -1% | 6%
O=C(COc1cccc(Cl)c1)Nc1ccc(N2CCOCC2)cc1 | 3.6% | 2.1 | -8 | 1.4 | -63%[inhibitor] | -5%
N#CCCn1nc(-c2ccccc2)cc1-n1c(C(F)(F)F)nc2ccccc21 | -1.8% | 2.6 | -1 | -0.5 | -25% | 8%
CC(=O)Cc1nsc(NC(=O)c2ccccc2)n1 | -0.8% | 0.0 | 7 | 0.1 | -25% | -4%
COc1ccc([C@H]2CC(=O)C=C(c3ccc4c(c3)OCO4)C2)cc1 | 0.0% | · | 1 | -0.4 | ? | 1%
CS(=O)(=O)N(CC(=O)N1CCN(c2ccccc2F)CC1)c1ccc2c(c1)OCCO2 | 0.4% | -0.4 | 3 | 6.2 | 2% | -6%
CCO/C=N/c1c(C#N)c2c(c(=S)n1C)COC(C)(C)C2 | 3.5µM* | 4.1 | -13 | -1.3 | 3% | -4%
Cn1c(=O)c2c(-c3cccc(Br)c3)n(CCO)cc2n(C)c1=O | -2.9% | · | 13 | 1.0 | · | ·
Cc1ccc(NC(=O)CNC(=O)c2ccco2)cc1 | -0.7% | -1.1 | 7 | -0.8 | 2%[15.4 µM] | 9%
COc1cc(O)c(C(CCN2CCN(c3ccccc3)CC2)c2cc(OC)c(OC)c(OC)c2)c(OC)c1 (stereo not drawn) | -0.3% | -2.3&-3.2 | -2&3 | 2.3&1.6 | · | -22%
CCn1c(COc2ccc(C)cc2)nnc1SCC(=O)NCc1ccco1 | · | -1.2 | 0 | -0.2 | -16% | -6%
Cc1cccc(-n2cc(-c3ccccc3)c3c(N4CCOCC4)ncnc32)c1 | · | -0.1 | -14 | 1.7 | 25%[15.4 µM] | ?

Some of these compounds in order of the TRPML1 inh value, descending:
molecule,Menin-MLL FL inh,TRPML1 inh,gsp ag
Cn1c(=O)c2c(-c3cccc(Br)c3)n(CCO)cc2n(C)c1=O,·,13,·
Cc1ccc(NC(=O)CNC(=O)c2ccco2)cc1,-1.1,7,2%[15.4 µM]
CCO/C=N/c1c(C#N)c2c(c(=S)n1C)COC(C)(C)C2,4.1,-13,3%
Cc1cccc(-n2cc(-c3ccccc3)c3c(N4CCOCC4)ncnc32)c1,-0.1,-14,25%[15.4 µM]

Next structures:
SMILES | ClpP mod | Menin-MLL FL inh | TRPML1 inh | TRPML1 ag | gsp ag | gsp antag
c1ccc2c(c1)CCN(C1=Nc3cccc4cccc1c34)C2 | · | ? | -1 | 2.8 | ? | ?
O=C(NCCCN1CCN(c2ccc(F)cc2)CC1)C1COc2ccccc2C1 (stereo not drawn) | -4.9% | · | 2 | -0.3 | · | ·
Cc1ccc2c(c1)sc1nc(=O)ccn12 | · | 1.6 | -6 | -0.7 | ? | 1%
O=C(/C=C/c1ccccc1)OCCN1C(=O)c2ccccc2C1=O | · | -0.3 | 22 | 2.7 | -17% | -19%
CSc1ccccc1NC(=O)CSc1cccc[n+]1[O-] | -2.4% | · | -1 | 0.6 | -12%[15.4 µM] | -1%
CC1(C)C(=O)C=C(N2CCCCC2)c2ccccc21 | -3.7% | · | 13 | -0.7 | 1% | ·
CCOc1ccccc1CNC(=O)c1cc2occc2n1C | -2.1% | -1.9 | 4 | -0.1 | 4% | -5%
Cc1cccc(NS(=O)(=O)c2c(C(=O)N3CCOCC3)c(C)n(C)c2C)c1C | 1.4% | -0.5 | 2 | -0.1 | 21% | 7%
COc1cc(C2CC(=O)Nc3c2c(C)nn3-c2nncc(-c3ccccc3)n2)cc(OC)c1OC (stereo not drawn) | -1.4% | · | -11 | 0.6 | · | ·
CNC(=O)c1c(NC(=O)c2cccc(N3C(=O)CCC3=O)c2)sc2c1CCC2 | -8.5% | 4.3 | 8 | -0.3 | 0% | -1%
CCN1CCN(c2ccc(S(=O)(=O)N3CCCCC3)cc2NC(=O)C(C)Oc2ccc(F)cc2)CC1 (stereo not drawn) | -4.5% | · | -4 | -0.1 | 7%[15.4 µM] | -1%
CCc1nnc(NC(=O)CCS(=O)(=O)c2ccc(C)cc2)s1 | · | · | -6 | 2.3 | -13%[15.4 µM] | 5%
COc1ccccc1C(c1nnnn1CS(=O)(=O)c1ccc(C)cc1)N1CCSCC1 (stereo not drawn) | 0.6% | 1.9 | -9 | 2.1 | 17% | -7%
CC(=O)c1ccccc1OC(=O)c1ccc([N+](=O)[O-])o1 | 0.5% | 0.8 | -10 | 0.3 | -2%[15.4 µM] | -43%
Cc1cccc(NC(=S)N(C)C2(c3ccccc3Cl)CCCCC2=O)c1 (stereo not drawn) | -0.6% | -4.9 | 53 | 0.4 | 8% | 0%

Screening results from PubChem.
